Assay outcomes (PubChem BioAssay)
RGS16-Gao HTS: regulators of human RGS16-Galphao interaction. O15492+P09471. bead-based flow cytometry RGS16-Galphao binding, fluorescence; actives lie on both sides. binding response (% of control), % at 10 µM. hit rate 0.38% among 220,000;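 active = below 25% or above 175%, edge rows of some plates excepted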;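 also: Galphao activated by GDP with aluminum fluoride before binding; 100% = wells without compound and 0% = beads without RGS; some results beyond the cut were filed as inactive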
Target sequence (O15492 whole entry, looked up): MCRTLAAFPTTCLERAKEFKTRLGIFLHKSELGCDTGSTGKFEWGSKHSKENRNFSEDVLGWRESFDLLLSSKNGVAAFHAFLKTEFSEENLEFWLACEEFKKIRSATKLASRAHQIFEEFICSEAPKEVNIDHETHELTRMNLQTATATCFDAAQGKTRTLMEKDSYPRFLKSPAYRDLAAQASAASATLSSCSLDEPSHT
Target sequence (P09471 whole entry, looked up): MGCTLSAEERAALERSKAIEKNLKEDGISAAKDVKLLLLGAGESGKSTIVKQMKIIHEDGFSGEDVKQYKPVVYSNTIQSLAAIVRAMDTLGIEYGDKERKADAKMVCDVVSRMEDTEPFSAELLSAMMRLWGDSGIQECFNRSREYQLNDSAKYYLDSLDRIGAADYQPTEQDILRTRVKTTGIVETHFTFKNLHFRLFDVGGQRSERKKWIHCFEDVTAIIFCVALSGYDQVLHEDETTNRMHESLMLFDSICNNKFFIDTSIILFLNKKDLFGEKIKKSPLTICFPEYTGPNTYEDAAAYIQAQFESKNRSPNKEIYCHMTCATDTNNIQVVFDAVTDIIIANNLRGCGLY
GALR2 agonist: GALR2 (human) receptor agonism; O43603; GALR2-expressing cells, agonist activation read-out; activation, %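 (tested at 5 µM)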; hit rate 0.48% among 140,000;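 active = above mean plus 3 SD of all compounds, about 5% in these data, not always enough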;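 also: 0% = vehicle buffer wells and 100% = reference agonist at full effect; tested in CHO reporter cells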
Insulin prom inh: TRM-6 insulin promoter activity inhibition; inhibition, % at 2 µM; hit rate 0.9% among 130,000; AID 1273; TRM-6 cells (human fetal islet line), insulin promoter-eGFP reporter, imaging; reporter expression induced with tamoxifen;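 active = inhibition above the mean plus 3 SD, with well images judged a real hit on visual review, cut at about 60% in these data, passing the limit was not always enough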
PKD1 inh: PKD1 (human) kinase inhibition; inhibition, %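 (about 10 µM by stock and volumes)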; hit rate 0.056% among 200,000; PKD1 kinase fluorescence polarization assay; AID 797; Q15139;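 active = inhibition of 50% or more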;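 also: controls were vehicle for no effect and a reference inhibitor for full effect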
HSV augment: increases HSV replication in cells. HSV replication augmentation in cells, fold increase. maximum fold increase. hit rate 0.005% among 220,000;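 active = peak rise of 1.5-fold or more in the series; tested in PC3 cells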;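 also: first round at 10 µM; read as green reporter fluorescence; hits show the peak of a series up to 25 µM; 1 = signal of infected wells without compound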
Insulin prom inh cell count: second read-out of Insulin prom inh, no call of its own (marks repeat the call); normalized cell count, %; measured here: cell count, toxicity; reference of the scale not given here;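 cells exposed to compound for 48 h; stained nuclei by imaging scaled within each plate; lower means fewer cells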
HSV augment primary fold: second read-out of HSV augment, no call of its own (marks repeat the call); fold increase; compound at 10 µM; measured here: primary screen fold increase 10 uM; tested in PC3 cells;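 GFP signal in the first replicate; 1 = infected wells without compound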
* marks the source's active call; other numbers are inactive results; i = inactive; nt = not tested or not shown.

mol	RGS16-Gao HTS	GALR2 agonist	Insulin prom inh	Insulin prom inh cell count	PKD1 inh	HSV augment	HSV augment primary fold
Cc1cccc2cc(CN(CC3CCCO3)C(=O)c3ccco3)c(=O)[nH]c12 (stereo not given)	108.0	0.3	-109.1	74.1	1.4	i	1.06
Cc1nc2c(C(=O)NCc3cccs3)cnn2c(C)c1Cc1ccccc1	93.4	-0.2	5.4	97.5	-6.7	i	0.84
CC(=O)NCCc1nc2ccccc2n1Cc1cc(C)ccc1C	98.6	nt	nt	nt	nt	i	0.99
COc1ccccc1C(=O)N/C(=C/c1ccc(Br)cc1)C(=O)NCCO	99.8	-2.9	-30.0	114.8	8.4	i	0.88
CCCn1c(CCc2ccccc2)n[nH]c1=S	103.0	nt	nt	nt	-2.6	i	0.92
CCc1cc(=O)oc2cc(C)cc(OC(=O)c3ccco3)c12	98.6	-1.4	-25.0	115.7	-4.6	i	1.05
O=c1[nH]c(-c2ccc(Cl)cc2)cs1	101.8	nt	nt	nt	1.5	i	0.93
Cc1ccc(Cl)cc1NC(=O)CC(O)(C(F)(F)F)C(F)(F)F	98.3	-1.7	-280.9	31.7	-2.9	i	0.72
CC(=O)c1cccc(-n2nnnc2SCC(=O)NNC(=O)C2CCCCC2)c1	57.3	nt	-90.9	32.9	2.9	i	1.01
C=CCn1c(-c2ccc(OC)cc2)csc1=Nc1c(C)n(C)n(-c2ccccc2)c1=O	104.4	-0.2	25.4	93.2	-0.7	i	0.94
Cn1c(C(=O)O)c(CC(=O)Nc2ccc3c(c2)OCCO3)c2ccccc21	103.0	-2.6	15.4	93.4	1.3	i	0.92
O=C1/C(=C/c2cccc(Cl)c2)CSc2sccc21	103.3	nt	nt	nt	nt	i	1.06
CCC1=C(OC(=O)c2ccccc2)C(C)(C)C(c2ccccc2)OC1=O (stereo not given)	100.5	-1.1	2.8	103.4	-0.4	i	0.91
CCOC(=O)NC1(NC2CCCCC2)Oc2ccccc2O1	94.4	-1.2	nt	nt	-2.7	i	0.98
Cc1nc(SCC(=O)c2ccc(Cl)s2)c2oc3ccccc3c2n1	101.3	-0.6	nt	nt	-5.5	i	0.97
COc1ccc(-c2csc(C3=C(O)CN(Cc4ccc(Cl)cc4)C3=N)n2)cc1OC	82.6	3.2	-23.3	72.1	5.3	i	0.71
C=CCN1CN=C(NS(=O)(=O)c2ccc(NC(C)=O)cc2)NC1	99.5	nt	nt	nt	-5.3	i	0.96
Cc1nnc(-c2cccc(Br)c2)c2cn(-c3ccccc3)nc12	116.2	-0.9	-8.6	124.5	-6.2	i	1.94
O=C(NCCc1ccccc1)C(NS(=O)(=O)c1cccc2nsnc12)c1ccccc1 (stereo not given)	100.4	-0.5	-66.7	105.5	-5.1	i	0.97
CCOC(=O)N1CCN(C(=O)/C(=C/c2ccc(Cl)cc2)NC(=O)c2ccccc2)CC1	98.2	nt	nt	nt	-4.4	i	0.88
COc1ccc(C2SCCN2C(=S)Nc2cccc(C(F)(F)F)c2)cc1 (stereo not given)	105.9	1.3	-122.2	94.8	-5.3	i	0.91
COC(=O)CCC(=O)Nc1ccc(Cl)c(Cl)c1	101.1	-1.0	-57.6	97.5	-4.0	i	0.92
COc1ccc(N=C(C)C2=C(O)COC2=O)cc1	116.3	-1.6	nt	nt	-14.3	i	1.1
CCn1ncc(/C=C/C(=O)Nc2c(C)nn(Cc3ccc(Cl)cc3Cl)c2C)c1C	88.8	-0.3	nt	nt	1.3	i	1
Cc1ccc(NC(=O)/C(=C\c2ccccc2)NC(=O)c2ccco2)cc1	93.2	nt	nt	nt	nt	i	0.95
CCC1=NN(C(=O)c2cccc(Br)c2)C(O)(c2ccc(Br)cc2)C1 (stereo not given)	105.3	-0.5	20.0	85.7	-5.2	i	0.59
O=C(CNC(=O)c1ccccn1)N/N=C/c1ccc2c(c1)OCO2	102.4	nt	11.8	75.4	-2.0	i	0.92
O=C(C1=NN[C@@H]2C(=O)N(c3cccc(C(F)(F)F)c3)C(=O)[C@H]12)c1ccc2ccccc2n1	102.3	-0.1	nt	nt	3.9	i	1.29
CC(Oc1ccc(Cl)cc1)C(=O)Nc1sccc1C(N)=O (stereo not given)	96.9	nt	nt	nt	-2.3	i	1.05
CCCn1nnc(NC(=O)c2ccc(F)cc2)n1	97.9	-0.7	30.6	84.1	-3.8	i	1.11
O=C(CN1CCOCCOCCOCC1)Nc1ccccc1	98.8	-1.0	-51.4	44.1	-3.5	i	0.93
CC1CN(S(=O)(=O)c2cccc(-c3cn4ccccc4n3)c2)CC(C)O1 (stereo not given)	101.9	-0.6	nt	nt	-1.6	i	0.91
Cc1ccc(CNC(=O)CSCc2cccc(F)c2)cc1	101.2	nt	35.0	74.3	-9.0	i	0.98
COc1ccc(C2CC(=O)C(C=NCCCN3CCOCC3)=C(O)C2)cc1 (stereo not given)	123.5	-0.2	10.8	164.8	-7.4	i	0.87
CC(=O)Nc1ccc(S(=O)(=O)/N=C2/NC(=O)/C(=C\c3ccco3)S2)cc1	100.7	nt	25.0	60.3	-5.9	i	1.09
Cc1cc([N+](=O)[O-])nn1CC(=O)NNC(=S)Nc1ccc(F)cc1	90.9	-2.6	-14.3	94.7	-2.8	nt	nt
Cc1ccc(O)c(C2=NNC(O)(C(F)(F)F)C2)c1 (stereo not given)	102.4	-1.3	-3.1	170.5	-1.4	i	0.98
CCOC(=O)/C(=C\C=C\c1ccccc1)NC(=O)c1ccccc1	97.1	-1.5	8.8	145.6	3.4	i	1.06
COc1ccc(NC(=S)NNS(=O)(=O)c2ccc3ccccc3c2)c(OC)c1	103.6	nt	nt	nt	-4.5	i	0.94
Cc1ccc(C(=O)Nc2ccc3c(c2)OCO3)cc1S(=O)(=O)N1CCCCC1	100.9	-0.7	25.0	81.8	-0.6	i	0.89
CC/C(=C1/C(=O)CC(C)(C)C(C(=O)OC)C1=O)N1CCCC1 (stereo not given)	104.3	-2.0	21.7	108.1	11.6	i	0.92
COc1cccc(-c2cc(=O)c3cc(NC(C)=O)ccc3[nH]2)c1	102.9	-1.8	18.2	129.8	-0.7	i	0.6
CC1(C(=O)O)CCC(C(=O)Nc2ccccc2O)C1(C)C (stereo not given)	93.4	-0.4	0.0	146.3	-1.2	i	0.91
COc1cccc(N2C(=O)CC(c3c[nH]c4ccccc34)C2=O)c1 (stereo not given)	103.2	-2.4	38.5	125.0	-2.0	i	0.9
Cc1ccc(NC(=O)CCn2cccc2)cc1C	139.8	-1.6	-7.0	45.0	-0.4	i	0.89
CN(C(=O)c1ccccc1C(=O)OCC(=O)NCc1ccccc1)C1CCCCC1	129.5	-0.7	-22.2	50.5	-5.8	i	1.01
C=CCC1C=C(Cc2ccccc2)CC(CC=C)N1 (stereo not given)	82.2	nt	-253.8	83.9	-1.4	i	0.93
Cc1cc(C(C)(C)C)cc(S(=O)(=O)NCCO)c1C	97.3	-4.8	2.9	119.6	-4.8	i	0.9
CCN(CC)S(=O)(=O)c1ccc(/C(O)=C(\C#N)c2nc3ccccc3n2C)cc1	97.2	-2.0	nt	nt	3.2	i	0.85
CC1(C)N=C(N)N=C(N)N1c1ccc(F)cc1F	108.9	-1.8	nt	nt	-9.1	i	1.03
COc1ccc(N2CCN(C(=O)CCc3c[nH]c4ccccc34)CC2)cc1	94.5	nt	18.2	102.2	1.1	i	0.96
CCN(CC)CCN(C(=O)c1ccc(N2C(=O)CCC2=O)cc1)c1nc2cc3c(cc2s1)OCCO3	87.3	nt	5.9	119.3	6.4	i	0.92
CCn1cc(CNC(=O)c2cc(-c3cc(OC)ccc3OC)nc3ccccc23)c(C)n1	103.1	-0.8	43.2	132.6	-5.3	i	1
CCc1nnc(NC(=O)c2csc3c2CCC(C)C3)s1 (stereo not given)	104.2	nt	20.0	65.9	1.1	i	0.93
COc1ccc(C2C(C(C)=O)=C(O)C(=O)N2c2cccnc2)cc1OC (stereo not given)	103.8	-1.1	-44.4	171.3	-5.5	i	1.09
CSc1nsc(SCC(=O)Nc2ccc(Br)cn2)n1	97.9	-1.1	4.7	102.8	-6.0	i	0.89
CC(C)/C=N\NC(=O)CCCCC(=O)N/N=C/C(C)C	132.5	0.1	-13.3	100.4	-3.1	i	0.95
O=C(Nc1cccn(Cc2ccc(F)cc2)c1=O)NC1CCCCC1	107.1	-2.9	-34.3	180.0	-14.1	i	0.92
CCOc1ccccc1OCCNC1CCCC1	125.4	-1.9	-21.4	91.7	-1.5	i	0.89
COc1cccc(C2(O)CCN(C(=O)c3cccs3)CC2)c1	94.6	-0.4	-15.6	48.3	-9.9	i	0.71

More entries.
mol	RGS16-Gao HTS	GALR2 agonist	Insulin prom inh	Insulin prom inh cell count	PKD1 inh	HSV augment	HSV augment primary fold
Cc1ccc(C(O)P(=O)(OC2CCCCC2)OC2CCCCC2)cc1 (stereo not given)	128.9	-2.9	-50.0	117.0	-7.3	i	0.9
c1ccc(-c2nnc(OCCN3CCOCC3)c3ccccc23)cc1	124.9	0.3	-2.7	75.2	-14.3	i	0.99
S=C1NCCNC(=S)NCCOCCOCCOCCN1	97.1	nt	25.6	103.1	-6.2	i	0.84
O=C(NNC(=O)C1CCCO1)c1ccc(Br)cc1 (stereo not given)	90.5	-2.0	15.6	115.7	-5.9	i	1.01
O=C(COC(=O)CNC(=O)C1CCCCC1)Nc1ccc2c(c1)OCCO2	101.8	nt	nt	nt	0.1	i	0.98
CCN(CC)S(=O)(=O)c1ccc(-c2nnc(SCC(=O)Nc3ccc(OC)c(OC)c3)o2)cc1	95.3	-1.9	48.1	123.3	-1.4	i	0.82
Cc1c(C(=O)N(Cc2ccc(N(C)C)cc2)C2CCS(=O)(=O)C2)oc2ccccc12 (stereo not given)	100.9	nt	nt	nt	nt	i	1.23
Cc1nnc(SCc2cc([N+](=O)[O-])cc3c2OCOC3)n(N)c1=O	99.2	nt	9.1	123.0	-4.1	i	1.34
O=C(Nn1cnnc1)c1cc2c(s1)CCCCC2	93.5	-1.9	nt	nt	-6.9	nt	nt
COc1ccc(OCC(=O)Nc2ccc(N3CCOCC3)cc2)c([N+](=O)[O-])c1	106.7	nt	-16.7	83.3	-3.5	i	0.94
